Assay outcomes: PubChem, National Center for Advancing Translational Sciences (NCATS)
2A Renilla – lowers the Renilla signal of an FMDV 2A StopGo reporter; HEK cells with a luciferase reporter of 2A StopGo recoding; Potency, µM (series often up to 57.5 µM), without a hit: at the top dose signal change, negative = less light; 0.32% of 120,000 active; AID 1745857; active means well fitted falling curve with a large enough effect; inconclusive means small, poorly fitted or top-dose-only effect; inactive means no such curve, though single readings can be large or run the other way; also: nearly all actives have a fitted effect of over 55% in size; overnight with compound
2A firefly – FMDV 2A StopGo reporter, firefly signal; HEK cells with a luciferase reporter of 2A StopGo recoding; 0.23% of 120,000 active; Potency, µM (titrated, usually from 57.5 µM), for inactives: top-dose signal change, negative = less light; active = well fitted falling curve with a large enough effect; inconclusive = small, poorly fitted or top-dose-only effect; inactive = no such curve, though single readings can be large or run the other way; also: nearly all actives have a fitted effect of over 60% in size; overnight with compound
Numbers without * were called inactive; ? = inconclusive; & = joins results of further samples; [ ] = remark or other dose. % is scaled to controls: 0 for no effect and ±100 for the full control effect; potency is read from the fitted curve at half-maximal effect. Only part of the results is shown, so the mix of outcomes need not match the whole.

SMILES	2A Renilla	2A firefly
CC(C)c1ccc(C2=CC(c3cccc(Cl)c3)n3ncnc3N2)cc1 (configuration not stated)	-18%	17%
CN(c1ccccc1)S(=O)(=O)c1nnc(NC(=O)C2CCCCC2)s1	-13%	17%
Cc1cccc(N2CCN(c3ncnc4onc(-c5ccc(F)cc5)c34)CC2C)c1 (configuration not stated)	7%	-4%
Cc1c(Cl)cccc1NC(=O)Cn1cnc(S(=O)(=O)N2CCCC2)c1	-3%	-14%
CC(=O)Nc1ccc(S(=O)(=O)[C@H]2CS(=O)(=O)C[C@@H]2N2CCN(C(C)=O)CC2)cc1	-17%	-11%
Cc1ccc2onc(CNC(=O)NCc3cccc(Cl)c3)c2c1	31%[activator]	-11%
CC1CCCCN1CCNC(=O)c1cc2c(s1)-c1ccccc1OC2 (configuration not stated)	-12%	5%
CCOC(=O)c1ccc(N2C(=O)c3n[nH]c(-c4cccs4)c3C2c2ccc(OC)cc2OC)cc1 (configuration not stated)	4%&-12%	-16%&-12%
CN(C)c1ccc(NC(=O)CSc2nc3ccsc3c(=O)n2CCCCCC(=O)O)cc1	-4%	-17%
CC(NC(=O)CC(C)(C)CC(=O)O)c1cc2ccccc2o1 (configuration not stated)	4%	-1%
CCn1nc(C(=O)Nc2nc(-c3cccs3)cs2)c2ccccc2c1=O	-26%	75%[activator]
O=C(COc1ccc(-n2cnnn2)cc1)N1CCN(S(=O)(=O)c2ccc3ccccc3c2)CC1	?	?
CC(=O)Nc1ccc(S(=O)(=O)N2CCCC(C(=O)Nc3cccc4ncccc34)C2)cc1 (configuration not stated)	9%	9%
Cc1c(C#N)c(NC(=O)CN2CCC(C(=O)N3CCCCCC3)CC2)n(C2CCCCC2)c1C	20%	0%
O=C(c1cccs1)N1CCCc2cc(NS(=O)(=O)c3ccc(Cl)cc3)ccc21	74%[activator]	-29%
O=C(O)CCC(=O)c1ccc(Cl)s1	-8%	0%
CCN(C(=O)Cn1nc(Cc2ccncc2)c2ccccc2c1=O)c1cccc(C(F)(F)F)c1	5%&2%	-4%&-17%
CCOC(=O)c1c(C)c2ccccc2n2cc(CN3CCOCC3)c(C#N)c12	97%[activator]	0%
C/C(=N/NC(=S)NC(C)C)c1ccc(Cl)cc1Cl	22%	4%
COC(=O)C(C)Oc1ccc2c(=O)c(Oc3ccccc3Br)coc2c1 (configuration not stated)	-9%	0%

Ordered by heavy-atom count (highest first): part of the list above
SMILES	2A Renilla	2A firefly
CCOC(=O)c1ccc(N2C(=O)c3n[nH]c(-c4cccs4)c3C2c2ccc(OC)cc2OC)cc1 (configuration not stated)	4%&-12%	-16%&-12%
O=C(COc1ccc(-n2cnnn2)cc1)N1CCN(S(=O)(=O)c2ccc3ccccc3c2)CC1	?	?
CCOC(=O)c1c(C)c2ccccc2n2cc(CN3CCOCC3)c(C#N)c12	97%[activator]	0%
Cc1c(Cl)cccc1NC(=O)Cn1cnc(S(=O)(=O)N2CCCC2)c1	-3%	-14%
CC(NC(=O)CC(C)(C)CC(=O)O)c1cc2ccccc2o1 (configuration not stated)	4%	-1%

(next part)
SMILES	2A Renilla	2A firefly
CC(C)CCNC(=O)Nc1ccc2c(c1)N(C)C(=O)c1ccccc1S2	125%[activator]	-11%
O=C(Nc1ccc(-c2noc(-c3cccs3)n2)cc1)c1ccc(Br)o1	2%	164%[activator]
Cc1noc(C)c1CCC(=O)Nc1nc(-c2ccc3c(c2)OCCO3)cs1	?	?
CSc1cccc(NC(=O)C2CC3C=CC2C3)c1 (configuration not stated)	0%	113%[activator]
CCC(C)NC(=O)c1cccc(N(C)C)c1 (configuration not stated)	3%	0%
COc1ccc2cc(C=O)ccc2c1	2%	-10%[11.5 µM]
O=C(Nc1ccccc1C(=O)OCc1cc(=O)n2c3c(sc2n1)CCCC3)c1ccc(F)cc1	6%	3%
CCOc1ccccc1N1CCN(c2nc(-c3cccnc3)nc3ccccc23)CC1	8%	6%
CCc1cccc2c(C(=O)CN3C(=O)NC(C)(c4ccc5c(c4)OCCO5)C3=O)c[nH]c12 (configuration not stated)	24%	24%
Cc1cccc(C(=O)N2CCc3cc(CNC(=O)Cc4ccc(F)cc4)ccc32)c1	47%[activator]	-28%
CCC1CCCCN1C(=O)CCc1nc2ccccc2c(=O)[nH]1 (configuration not stated)	3%	34%[activator]
O=C(NC1CCCC1)c1ccc(Oc2ccccc2)cc1	21%	203%[activator]
CC1(C)OC(=O)C(C(c2ccccc2)C(C#N)C(N)=O)=C(O)O1 (configuration not stated)	7%	1%
CC(C)n1ncc2cc(NC(=O)c3cccc(S(=O)(=O)N4CCCC4)c3)cnc21	?	?
Cc1ccc(Cl)c(OC(=O)c2nn(C(C)C)c(=O)c3ccccc23)c1	7%	17%
Cc1ccc(NC(=O)N(Cc2c[nH]c3ccccc23)C2CCCCCC2)cc1C	19%	115%[activator]
CC(C)c1nc2cc(NC(=O)CNC(=O)c3ccco3)ccc2o1	3%	20%
Cc1ccc(C2CCN(C(=O)c3cnn(-c4ccc(C)cc4)c3C3CCN(C(=O)OC(C)(C)C)CC3)C2)cc1 (configuration not stated)	-8%	2%
N/C(=C\C(=O)/C=C/c1cccs1)C(Cl)(Cl)Cl	?	-16%
Cn1c(=O)c2c(ncn2CC(=O)NCCCO)n(C)c1=O	-2%	6%
COc1ccc(NC(=O)c2cc(-c3cccnc3)nc3ccccc23)cc1	-3%	44%[activator]
O=C(COC(=O)Cn1cnc2ccccc21)Nc1ccc(Cl)cc1C(F)(F)F	-4%	1%
CCOC(=O)c1c(C)c(C(=O)NCc2ccc(Cl)cc2)c(C)n1CC	-10%	-19%
Cc1ccc(-n2c(-c3ccccc3)cc(C=Nc3ccc(C)c(C)c3)c2-c2ccccc2)cc1	61%[activator]	200%[activator]
CCOC(=O)c1c(NC(=O)c2cc(Cl)ccc2Cl)sc2c1CCCC2	-12%	-3%
Cc1ccccc1OCCNC(=O)c1cc(=O)c2ccccc2o1	-1%	62%[activator]
CCCCC(=O)n1ccn(S(=O)(=O)c2ccc(C)cc2)c1=O	-5%	-6%
Cc1ccc2nc(N3CCC(C(=O)N4CCN(c5cccc(C)c5C)CC4)CC3)[nH]c2c1	?	?
O=S(=O)(NCCc1csc(-c2ccc(F)cc2)n1)c1ccc(F)cc1F	?	?
O=S(=O)(Nc1nc2ccccc2nc1NC1CCCC1)c1ccc2ccccc2c1	22%	-1%
CCCCCC1=CCC/C1=N\NC(=O)c1ccco1	29%	0%
COc1cc(OC)cc(-c2nc(-c3cccc(C)c3)no2)c1	-7%	10%
Cc1nn(C(=O)COc2ccc(Cl)cc2)c(C)c1Sc1ccccc1	-6%	-6%
O=CC1=C(c2ccccc2)SC(c2ccccc2)C(Cc2ccccc2)=C1 (configuration not stated)	-8%	-5%
Cc1ccc(Cn2cnc3nc4c(cc3c2=O)CC(C)CC4)cc1 (configuration not stated)	-10%	232%[activator]
Cc1ccc(N(CC(=O)Nc2cc(C)cc(C)c2)S(=O)(=O)c2cccc3nonc23)cc1	3%	-7%
COc1ccccc1-c1noc(-c2ccc(N3CCOCC3)c([N+](=O)[O-])c2)n1	-3%	35%[activator]
CN(Cc1ccccc1)C(=O)CCS(=O)(=O)c1cc(Br)cc2c1N(C(=O)C1CC1)CC2	84%[activator]	-14%
CCc1cccc(C)c1NC(=O)CN1CCCN(Cc2ccc(C)cc2)S1(=O)=O	-5%	-4%
CCc1ccc(C2C(C(=O)OC(C)C)=C(C)N=C3SCCC(=O)N32)cc1 (configuration not stated)	0%	2%

In the list so far, 3 contain bromine.
SMILES	2A Renilla	2A firefly
COC(=O)C(C)Oc1ccc2c(=O)c(Oc3ccccc3Br)coc2c1 (configuration not stated)	-9%	0%
O=C(Nc1ccc(-c2noc(-c3cccs3)n2)cc1)c1ccc(Br)o1	2%	164%[activator]
CN(Cc1ccccc1)C(=O)CCS(=O)(=O)c1cc(Br)cc2c1N(C(=O)C1CC1)CC2	84%[activator]	-14%

Next section:
SMILES	2A Renilla	2A firefly
Cc1cccc(N2CCN(C(=O)CS(=O)(=O)c3cccc4nsnc34)CC2C)c1 (configuration not stated)	-8%	-2%
CCNC(=O)c1ccc(CNC(=O)OC(C)(C)C)cc1	33%	45%
CC(=O)Nc1cccc(C(=O)NCc2nc(C)cs2)c1	2%	20%
c1ccc(Oc2ccc(CNc3ncccn3)cn2)cc1	-1%	30%[activator]
Cc1c(Cl)cccc1-n1c(SCC(=O)NCc2ccccc2)nc2n[nH]c(C)c2c1=N	77%[activator]	-18%
Cc1ccc(Oc2c(C(F)(F)F)oc3c(CN4CCCCC4)c(O)ccc3c2=O)cc1	29%	92%[activator]
CCCCN1C(=O)c2[nH]nc(-c3ccccc3O)c2C1c1ccc(OCc2ccccc2)cc1 (configuration not stated)	-15%	0%
CNC(=O)NC(=O)CSc1ccc(Br)cc1	-7%	15%
CCN(Cc1cccc(C)c1)Cn1ncc2cn(-c3ccccc3)nc2c1=O	5%	56%[activator]
Cc1ccc(CNC(=O)Cn2ccn(-c3ccc(F)cc3)c(=O)c2=O)cc1	14%	-18%
CCC(C)NC(=O)c1cc2cccc(OC)c2oc1=O (configuration not stated)	6%	106%[activator]
CCOC(=O)c1c(C)oc2nc(C)nc(NCc3ccc(F)cc3)c12	-5%	-4%
COc1ccc2c(C)c(CC(=O)NCc3ccccc3OC)c(=O)oc2c1	17%	28%
O=S(=O)(Nc1nc2ccccc2nc1Nc1ccc2c(c1)OCCO2)c1ccc(Cl)cc1	87%[activator]	59%[activator]
CC(=O)c1cnn(-c2cc(Nc3cccc(Cl)c3)nc(C)n2)c1C	-5%	5%
CC(=O)c1ccc(NC(=O)CC2C=CCC2)cc1 (configuration not stated)	16%	197%[activator]
O=c1nc2n(-c3cccc(Cl)c3)c3cccc(Cl)c3cc-2c(=O)[nH]1	-5%	1%
Cc1cc(Nc2cc(F)ccc2F)n2nc(-c3ccco3)nc2n1	27%	27%
CCN(c1ccc(-c2csc(-c3cccs3)n2)cc1)S(C)(=O)=O	3%	24%
CCN1CCN(C(c2ccc(C)cc2)c2sc3nc(-c4ccco4)nn3c2O)CC1 (configuration not stated)	5%	-5%
COc1ccc(Br)cc1CNC(=O)CSc1cc(=O)n(C)c2ccccc12	-6%	-10%
CC(C)Cn1nnnc1SCC(=O)N(Cc1cccs1)c1ccc2c(c1)OCCO2	14%	8%
Cc1cc(=O)n(Cc2ccc(Cl)cc2)c2c1c(C)nn2-c1ccccc1	-2%	-6%
O=C(Oc1cccc2cccnc12)c1ccccc1	-5%	-15%[11.5 µM]
CCC(C)NC(=S)Nc1cccc(C)c1 (configuration not stated)	36%[activator]	18%
Cc1ccc(NC(=O)CN2C=NS(=O)(=O)c3ccccc32)c(C)c1	13%	-21%
CCC(=O)Nc1ccc2nc3c(=O)n(C)c(=O)n(C)c3nc2c1	-8%	-16%
CCC(C(=O)Nc1ccc2c(c1)OCCO2)n1nc(-c2cc(C)ccc2C)ccc1=O (configuration not stated)	19%	20%
CCOC(=O)N1CCN(C(=O)CN(c2cc(Cl)cc(Cl)c2)S(C)(=O)=O)CC1	0%	-2%
Cc1ccc2nc(-c3ccc(C)s3)cc(C(=O)NCc3ccccn3)c2c1	36%[activator]	140%[activator]
c1ccc(CN2CCN(c3ncnc4c3cnn4-c3ccccc3)CC2)cc1	-11%	9%
Cc1cccc(Cn2cc(S(=O)(=O)c3cccc(Cl)c3)c(=O)c3cc(F)c(N4CCOCC4)cc32)c1	3%	-5%
CCOC(=O)C(NC(=O)c1ccccc1)c1c(C)nn(-c2cccc(C(F)(F)F)c2)c1C (configuration not stated)	10%	-3%
CCN1Cc2nnn(Cc3ccccc3)c2-c2cc(N3CCCC3)ccc2S1(=O)=O	65%[activator]	-8%
CC(C)Cn1c(=O)c2ccccc2n2c(CCC(=O)Nc3ccc(F)c(F)c3)nnc12	-13%	-19%
COc1ccc(-c2cn3c(n2)sc2cc(C(=O)NCCCN4CCCCCC4)ccc23)cc1	-17%	16%
CCCCc1ccc(NC(=O)C23CC4CC(CC(C4)C2)C3)cc1	-6%	0%
CC(C)Oc1ccc2c(-c3ccccc3)cc(=O)oc2c1	35%[activator]	93%[activator]
COCCCNc1oc(-c2ccc(S(=O)(=O)N3CCCC3)cc2)nc1C#N	66%[activator]	0%
CCc1ccc(-c2noc(CN3CCCC3c3cc(OC)ccc3OC)n2)cc1 (configuration not stated)	5%	0%
O=C(c1ccccc1)N(Cc1ccc2cc[nH]c2c1)C1CC1	22%	7%
CCc1ccccc1NC(=O)CN1C(=O)c2ccccc2Sc2ncccc21	-5%	-2%
CN(CC(=O)N1CCN(Cc2ccccc2)CC1)S(=O)(=O)c1ccc(Cl)cc1	15%	11%
Cc1ccc(Cl)cc1NC(=O)Nc1cccc(OCc2cc(=O)n3ccccc3n2)c1	-10%	-8%
Cc1cc(C)nc(-n2nc(C)c3c2N(C)C(=O)CC3c2ccc(Cl)cc2)n1 (configuration not stated)	-10%	8%
Cc1cccc(NC(=O)c2cnc3sc(N4CCCC4)nn3c2=O)c1C	-1%	1%
CCC(C)NC(=O)c1cccc(CNC(=O)C2CCCC2)c1 (configuration not stated)	4%	0%
Cc1ccc(C(=O)Nc2cnc3ccccc3c2)cc1[N+](=O)[O-]	1%	160%[activator]
CC(C)NC(NC(=O)c1ccccc1)C(Cl)(Cl)Cl (configuration not stated)	1%	-3%
N#Cc1ccc(CN2CCC(c3ccnn3CCO)CC2)cc1	11%	16%
Cc1ccc(-c2cc(C(=O)Oc3ccc(Br)cc3)no2)cc1	10%	16%
Cc1oc(-c2ccc(Cl)cc2)nc1CS(=O)CC(=O)N1CCN(c2cccc(C(F)(F)F)c2)CC1 (configuration not stated)	?	?
